Assay outcomes deposited in PubChem by several laboratories.
UUG fidelity: alters start codon recognition fidelity in yeast. S. cerevisiae UUG-firefly luciferase reporter, luminescence/redox ratio. hit rate 0.13% among 350,000. activity score, % at 18.7 µM. AID 602363;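 active means replicate mean at a twofold rise or more, about +100% in these data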;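 further: firefly luciferase made from a UUG start codon reports start codon fidelity; reporter light over untreated wells divided by growth signal over untreated wells; some hits fall short of that in this replicate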
MT1-MMP act inh: MT1-MMP (human) activation inhibition. HT1080 RFP-PRO-GFP cells, GFP/RFP ratio fluorescence, overnight; percent of plate control window, DMSO zero. GFP/RFP ratio change, % at 20 µM. hit rate 0.061% among 360,000. AID 651647;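 active means GFP/RFP ratio change of at least 30% with cell ATP level not reduced by more than half and red fluorescence within 50% of control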; further: strong numbers were not always called active
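Material – HT1080 RFP-PRO-GFP cells · Control set – DMSO wells and RFP-L50D-GFP cells · Incubation – overnight cell settling, then overnight compound exposure, 37 °C, 5% CO2 · Compound dosing – single-point 20 µM compound, 1% DMSO · Read-out – GFP/RFP fluorescence ratio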
PABP polyA inh: PABP-poly(A) binding inhibition. inhibition, % at 35 µM. PABP-poly(A) RNA binding, fluorescence polarization. hit rate 1% among 290,000;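 active means 50% or more with normal probe brightness, or confirmed in later tests; about a fifth of its hits are not listed in these tables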;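 further: calls also rest on retests at 20 µM and on dose response follow-up; controls were probe without protein and protein plus probe with vehicle; some compounds called inactive have numbers as strong as hits; many hits fall short of the cut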
HIV Env fusion: blocks HIV Env-driven cell-cell fusion; inhibition, % at 12.3 µM; HeLa-JRFL Env/CEM21 cell fusion, luciferase; hit rate 1.1% among 360,000;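 active means mean replicate inhibition score of at least 50 and every replicate individually at or above 50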;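 further: 0% = plate neutral controls and 100% = maraviroc near 300 nM; one replicate is shown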
CSC inhib: cancer stem cell inhibition. cancer stem cell-like cells viability, luminescence. inhibition, % at 7.5 µM. hit rate 1.1% among 300,000. AID 2717;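 active means mean at 75% or more and at least half the replicates too; tested in HMLE shEcad cells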;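 further: 0% = median of negative and 100% = median of positive control wells; the first replicate is given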
eIF4H FP inh: inhibitors of RNA binding by human eIF4H; AID 2012; eIF4H fluorescence polarization binding assay; Q15056; inhibition, % at 35 µM; hit rate 0.94% among 290,000;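 active means 50% or more with normal probe brightness, or confirmed in later tests; about a fifth of its hits are not listed in these tables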;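 further: calls also rest on retests at 20 µM and on dose response follow-up; 0% = protein and probe with vehicle and 100% = probe without protein; strong numbers were not always called active; many hits fall short of the cut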
Rce1 inh: yeast Ras-converting enzyme inhibition. hit rate 0.27% among 290,000. yeast membranes, quenched prenylated peptide cleavage fluorescence. AID 2563. calls only. Q03530;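 active means fall in fluorescence gain of 50% or more versus controls, with final raw signal at or below 3038400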;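 further: plate controls were neutral control wells for no effect and wells lacking membranes for full effect; tested at 10 µM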
Target sequence (Q03530 whole entry, looked up): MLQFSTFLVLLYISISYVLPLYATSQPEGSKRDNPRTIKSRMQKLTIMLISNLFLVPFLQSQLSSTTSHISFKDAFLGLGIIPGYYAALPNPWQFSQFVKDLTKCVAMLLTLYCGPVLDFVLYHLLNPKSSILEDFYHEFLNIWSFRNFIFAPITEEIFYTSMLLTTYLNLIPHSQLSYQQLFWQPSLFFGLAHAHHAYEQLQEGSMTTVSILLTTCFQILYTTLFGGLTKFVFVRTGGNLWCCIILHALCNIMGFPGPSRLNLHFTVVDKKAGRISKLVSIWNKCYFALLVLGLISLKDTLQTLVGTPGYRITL
MT1-MMP act inh RFP: further read-out of MT1-MMP act inh, marked with its call; RFP signal change, %; measured here: RFP expression control read;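 0 = vehicle wells; hits needed this value within 50% of zero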
Active calls of the source: *; i = inactive; / = not tested or not shown.

SMILES	UUG fidelity	MT1-MMP act inh RFP	PABP polyA inh	MT1-MMP act inh	eIF4H FP inh	Rce1 inh	HIV Env fusion	CSC inhib
COc1cccc(C(=O)NN2CC(O)=C(c3nc(C)cs3)C2=N)c1	-9	4	-4	-1	0	/	0	-12
O=C1c2cccc3cc(Br)cc(c23)C(=O)N1Nc1ccc(Br)cc1	-7	2	1	4	-7	i	3	-8
O=C(Nc1ccc(Cl)c(S(=O)(=O)N2CCOCC2)c1)C1=NN(c2ccccc2)C(=O)CC1	17	-4	/	0	/	/	11	6
CCn1c(SCC(=O)Nc2cc(C)on2)nnc1-c1ccco1	-20	-3	0	-4	-5	i	-39	2
O=c1c2c(nc3cc(-c4cccc(Cl)c4)[nH]n13)CCC2	-19	3	0	-6	-14	i	-177	-1
Cc1ccc(NP(=O)(c2ccc(N(C)C)cc2NC(=O)c2cccs2)N2CCOCC2)cc1 (centres undefined)	/	-10	-8	-7	0	i	-15	33
CC(=O)CC(C)(C)NC(C)=S	-13	0	-5	-2	-10	i	7	-9
Cn1c(C(=O)N2CCCC(C(=O)NCc3ccccc3)C2)cc2sccc21 (centres undefined)	-1	-2	-1	1	-11	i	-2	-6
CCN(c1ccccc1)S(=O)(=O)c1cccc(C(=O)NCc2cccnc2)c1	-14	-3	/	8	/	i	2	-3
Cc1ccc(/C=N/NC(=O)c2nnn(-c3nonc3N)c2-c2ccc3c(c2)OCO3)s1	-3	-1	6	1	2	i	4	11
Cc1ccc(CNC(=O)CCCn2c(=O)[nH]c3ccccc3c2=O)cc1	-13	2	0	-1	-7	i	-28	13
O=C(Nc1ncc(Cc2cccc(Cl)c2Cl)s1)C1CCCO1 (centres undefined)	-17	-14	4	-12	7	i	-52	21
CCN(CC)S(=O)(=O)c1cc(C(=O)OC(C)C(=O)NCc2ccco2)ccc1C (centres undefined)	7	0	/	2	/	/	/	15
CCc1ccc(N(CC(=O)Nc2ccccc2C(=O)N2CCCC2)S(C)(=O)=O)cc1	3	3	2	1	-2	i	-12	5
Cc1cc(C)n2c(SCC(C)C)nnc2n1	-5	-1	8	2	13	i	18	-4
O=C(Cc1c(Cl)cccc1Cl)OCC(=O)c1ccc[nH]1	-8	-5	/	2	/	/	-2	/
CCOC(=O)C1=C(c2ccccc2)O/C(=C(\C(=O)OC)C(F)(F)F)S1	-11	-11	13	-11	6	i	12	0
CC(C)(C)c1ccc(OCCC(=O)OCC(=O)NC2CCS(=O)(=O)C2)cc1 (centres undefined)	/	6	/	3	/	i	-3	-12
CCCN1CCc2c(sc3nc(SCC)n(-c4ccc(OC)cc4)c(=O)c23)C1	-6	-7	-24	0	39	i	/	/
Cc1cc([N+](=O)[O-])ccc1N1C(=O)c2ccc(C(=O)Nc3ccccc3C(=O)O)cc2C1=O	-3	5	4	2	0	i	24	4

Entries of single compounds, looked up by structure. Order of values: UUG fidelity | MT1-MMP act inh RFP | PABP polyA inh | MT1-MMP act inh | eIF4H FP inh | Rce1 inh | HIV Env fusion | CSC inhib
O=C(Cc1c(Cl)cccc1Cl)OCC(=O)c1ccc[nH]1 is listed with -8 | -5 | / | 2 | / | / | -2 | /
COc1cccc(C(=O)NN2CC(O)=C(c3nc(C)cs3)C2=N)c1 is listed with -9 | 4 | -4 | -1 | 0 | / | 0 | -12
O=C(Nc1ncc(Cc2cccc(Cl)c2Cl)s1)C1CCCO1 (centres undefined) is listed with -17 | -14 | 4 | -12 | 7 | i | -52 | 21

(listing goes on)
SMILES	UUG fidelity	MT1-MMP act inh RFP	PABP polyA inh	MT1-MMP act inh	eIF4H FP inh	Rce1 inh	HIV Env fusion	CSC inhib
O=C(CSc1nc2ccc(NC(=O)CSc3nnnn3Cc3ccccc3)cc2s1)Nc1ccccc1	7	-3	-10	8	-11	i	-28	-10
CCCCNC(=O)CSc1nc(CCC)nc2ccccc12	/	1	0	2	6	i	11	-5
CCC(C)[C@H](NC(=O)C1CCC(CNC(=O)[C@@H]2CCCN2C(=O)OC(C)(C)C)CC1)C(=O)O (some centres undefined)	-10	6	6	2	-1	i	7	-3
O=C(Nc1ccccc1Cl)c1cc(C2CCCN(S(=O)(=O)c3cccs3)C2)on1 (centres undefined)	-4	3	/	-2	/	/	18	/
Cc1ccc(C)c(NC(=O)CN(C)C(=O)Cc2ccc(Cl)cc2Cl)c1	1	0	6	0	-2	i	13	17
CCOC(=O)C1=C(COC(=O)c2cccs2)NC(=O)NC1C (centres undefined)	-13	3	/	1	/	i	/	-16
CCOc1cc(OCC)cc(C(=O)Nc2cccnc2)c1	-3	2	7	0	-8	i	/	-16
COC(=O)CC1=NC(=O)CS1	-18	0	-6	-2	3	i	/	-14
N/C(=N\OC(=O)c1cccc([N+](=O)[O-])c1)c1cccnc1	/	5	42	6	2	i	/	-6
Cc1cc(C(=O)Nc2ccon2)cs1	-11	-1	-14	-2	-7	i	/	-5
O=C(COC(=O)c1ccc(F)cc1F)NCCNC(=O)COC(=O)c1ccc(F)cc1F	-16	-1	-6	-3	7	i	-4	-3
O=C(OCC(=O)c1c[nH]c2ccccc12)c1cc(S(=O)(=O)N2CCOCC2)ccc1F	-3	5	/	0	/	/	-3	/
O=C(OCC(=O)N1CCN(C(=O)c2ccco2)CC1)c1cc(-c2cccc(Br)c2)nc2ccccc12	-18	-7	-15	3	-1	i	-2	5
O=C(Nc1ccc(S(=O)(=O)N2CCCCC2)cc1)c1ccc(CN2CCc3ccccc3C2)cc1	11	-22	2	8	4	i	/	41
Cc1cc(C)cc(NC(=O)N2CCCCCCC2)c1	0	3	4	-2	0	/	-1	-22
CC(=O)Nc1ccc(C(=O)Cn2nnc3ccccc3c2=O)cc1	/	-1	2	-2	-3	i	-28	-9
CCCCCNC(=O)c1cc(S(=O)(=O)N2CCCCC2)ccc1F	/	-2	1	1	-2	i	2	2
CCOc1ccc2c(c1)N(C(=O)CN1C(=O)CCC1=O)C(C)(C)C=C2C	-7	4	2	-1	-4	i	/	-7
C/C(=N\N=C(c1ccccc1)c1ccccc1)c1cccs1	-15	-2	0	-6	-2	i	/	/
COC(=O)c1c(NS(=O)(=O)c2ccc(C)cc2)sc2c1CCC(C)C2 (centres undefined)	-13	-6	-2	-6	1	/	-12	29

(further entries)
SMILES	UUG fidelity	MT1-MMP act inh RFP	PABP polyA inh	MT1-MMP act inh	eIF4H FP inh	Rce1 inh	HIV Env fusion	CSC inhib
Cc1ccc(C)c(NC2=NS(=O)(=O)c3ccccc32)c1	-3	4	-8	7	-12	i	-11	3
Cc1cccc(OCC(=O)NC2CCCCCC2)c1C	-22	-3	6	-1	-3	/	-6	2
N#Cc1cc(-c2ccccc2)nc(N2CCNCC2)n1	/	-9	-8	-9	9	/	1	27
O=C(COC(=O)c1cccs1)NCCc1ccc(F)cc1	-1	1	/	-2	/	/	3	/
CCCCOCCCNC(=O)COc1ccccc1	-2	0	6	0	1	i	/	-8
Cc1ccc(C(=O)NCCCNC(=O)c2ccco2)cc1	-23	5	-6	2	-9	i	-11	9
CCOC(=O)CN1CC23C=CC(O2)C(C(=O)O)C3C1=O (centres undefined)	-9	6	-1	-2	-7	i	-7	-5
CC(=O)c1ccc(NC(=S)NCC(c2ccco2)N2CCCC2)cc1 (centres undefined)	-14	5	-3	-2	18	i	6	-2
Cc1ccc(NC(=O)c2sc(C)nc2C)c(C)c1	/	3	-3	1	7	i	9	5
Cc1c(O)nc(SC2CC(=O)N(c3ccccc3)C2=O)[nH]c1=O (centres undefined)	-11	9	16	7	-4	i	-65	6
CCCCN(CCCC)CCNC(=O)c1cn(CC)c2ccc(S(=O)(=O)N(C)C3CCCCC3)cc2c1=O	-21	-5	-4	-2	-6	i	3	10
CSc1ccc(CN2CCSCC2)cc1	-4	0	-4	0	6	i	-14	-6
CCN(Cc1ccccc1)C(=O)c1cc2c(OC)c(OC)c(OC)cc2[nH]1	-4	-4	-15	0	-13	i	0	-19
CCOc1ccccc1NC(=O)CSc1nnc(-c2cnccn2)n1C	-28	4	-2	4	-7	i	36	-4
O=C(NCCCN1CCOCC1)c1cccc(S(=O)(=O)Nc2ccccc2Cl)c1	-13	-1	-6	-2	-10	i	-29	/
CCCc1cc(NCc2ccccn2)n2nc(C)c(-c3ccccc3)c2n1	-48	-13	-2	1	9	i	6	53
O=C1CSC(=Nc2ccccc2)N1	-20	1	-7	6	-1	i	/	-5
Cc1ccccc1OCC(=O)NCC1CCCO1 (centres undefined)	-5	-3	2	3	-7	i	-40	/
COc1ccc(CCNC(=O)c2cc3c(=O)n4ccccc4nc3n(CC3CCCO3)c2=N)cc1OC (centres undefined)	6	4	1	6	4	/	/	-3
Cc1ccc(Nc2ncnc3sc(C)c(C)c23)cc1C	/	-5	-5	-5	-10	i	/	34

(list continues)
SMILES	UUG fidelity	MT1-MMP act inh RFP	PABP polyA inh	MT1-MMP act inh	eIF4H FP inh	Rce1 inh	HIV Env fusion	CSC inhib
COc1cccc(CNC(=O)CCNC(=O)c2ccc(Br)o2)c1	-8	3	/	-2	/	i	-7	-9
COc1ccc(-c2cc(C(=O)N3CCN(C(c4ccccc4)c4ccccc4)CC3)no2)cc1	-4	-11	-9	-20	-4	i	/	53
CCCCOc1ccc(/C=C/C(=O)OCC(=O)N2CC(=O)Nc3ccccc32)cc1OCC	/	-28	2	-13	-3	i	61*	/
C[n+]1cccc(C(=O)N/N=C/c2ccc3c(c2)OCO3)c1	-6	1	38	1	-8	/	-6	9
CN1CCN(C(=O)c2cccn(Cc3cccc(Cl)c3)c2=O)CC1	-13	3	-2	1	1	i	-9	-7
CCOC(=O)Cc1csc(NC(=O)CCSc2ccccc2)n1	16	0	-6	-5	-8	i	8	/
Cc1c(C(N)=O)sc2ncn(CC(=O)NCCc3ccccc3)c(=O)c12	/	4	-6	-7	8	i	-9	1
Cc1cccc(C(=O)NCC(=O)OC(C)C(=O)Nc2ccc(Cl)cn2)c1 (centres undefined)	15	2	/	-2	/	i	-1	2
CCOc1ccc(NC(=O)COc2ccc3c(c2)OCO3)cc1	/	0	13	0	-1	i	-8	8
Cc1ccc(O)c(/C=N/NC(=O)c2[nH]ncc2Br)c1	-19	3	27	4	12	i	/	17
CSc1ccccc1NC(=O)c1cnc2sc(C)cn2c1=O	-20	-1	/	6	/	i	-81	-4
Cc1cc(C(=O)N/N=C/c2ccc([N+](=O)[O-])s2)c2ccccc2n1	-14	-2	10	0	13	i	-17	/
O=C1NC(=S)N/C1=C/c1cc([N+](=O)[O-])ccc1O	-9	2	12	-37	-6	i	5	-8
O=C(Cc1ccccc1)N1CCNCC1	/	2	6	-2	-23	i	10	/
COc1cccc(/C=N/NC(=O)c2ccccc2)c1OS(=O)(=O)c1ccccc1	/	2	4	1	-6	i	0	-13
O=C(O)c1ccc(NS(=O)(=O)c2cccc(C(=O)Nc3ccc([N+](=O)[O-])cc3)c2)cc1	-1	-3	41	-3	-4	i	7	-12
COc1cccc(C(C(=O)NC(C)(C)C)N(Cc2ccc(F)cc2)C(=O)CCC(=O)Nc2cc(C)on2)c1OC (centres undefined)	6	-4	-2	-5	4	i	38	1
C(=N\n1cnnc1)/C1CCCCC1	3	7	4	10	-9	i	/	11
O=C(C[C@@H]1C/C=C\CCC(=O)O[C@H](c2ccccc2)CNC1=O)N[C@H](CO)Cc1ccccc1	-8	2	/	2	/	/	-7	/
Cc1ccsc1CNC1C2CC3CC(C2)CC1C3 (centres undefined)	/	0	4	3	41	i	-2	19
O=C(CCCN1C(=O)/C(=C/c2ccccc2Cl)SC1=S)NNC(=O)c1ccncc1	/	-1	-4	1	-12	i	17	-9

The list is partial; count on the stated rates, not on these rows.
